Mtb hypoxia inh: PubChem AID 1159583; fluorescence inhibition, % (concentration not given with the values); M. tuberculosis hypoxia-regulated fluorescent reporter, fluorescence; hit rate 0.1% among 300,000;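 active = 35 to 45% if threefold the growth effect, above 45% if 1.5-fold the growth effect; inactive = the rest, general growth blockers included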;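 also: wells of about 50 µL received 100 nL stock; 0% = vehicle wells and 100% = reference inhibitor wells; whole bacteria with a GFP reporter of the hypoxia response; strong numbers were not always called active; many hits fall short of the cut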
PrP 5UTR inh: inhibition of PrP 5' UTR reporter expression. hit rate 0.35% among 340,000. cell-based PrP 5' UTR mRNA reporter, plate reader. inhibition, % (no concentration beside the values);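 active = every replicate at 50% or more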;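 also: 0 = median of the neutral control wells; tested in H4 reporter cells; numbers are from one replicate; inactives centre near -14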
Sa ugtP lethal: growth inhibition of ugtP-null S. aureus, primary screen, RN4220 ugtP deletion, OD600 | 16 h; some inactives read as strong as hits | hit rate 0.54% among 330,000 | AID 1259309, 2017 | growth inhibition, % (concentration not given with the values);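 active = z-score under -3 and OD600 up to 0.15 on both plates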;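 also: plate controls were untreated wells for no effect and antibiotic for full effect; wells of about 80 µL received 100 nL stock; the first replicate is given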
Sa RN4220 lethal: growth inhibition of S. aureus RN4220, primary screen, OD600; 16 h; inhibition, % (concentration not given with the values); hit rate 0.33% among 330,000; AID 1259311, 2017;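 active = z-score of -3 or lower and OD600 up to 0.18 on both plates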;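 also: plate controls were untreated cells for no effect and reference antibiotic for full effect; stock transfer was 100 nL into about 80 µL; one replicate is shown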
BJeLR viability: MLPCN primary cell-based screen for lethality selective to Ras in HRASV12 cells; BJeLR (HRASV12) viability, CellTiter-Glo ATP luminescence, 48 h; reference of the scale not given here; inhibition, % (concentration not given with the values); hit rate 0.17% among 300,000; AID 1554, 2009;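 active = replicate mean above 50%; inconclusive = above 50% but judged a plate artefact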;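 also: 50 nL library stock added to about 25 µL; numbers are from one replicate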
Autofluor counter: flagged as autofluorescent in microsphere protease counterscreen. compound autofluorescence counterscreen, microsphere flow cytometry; stronger effect = higher value. fluorescence intensity (test concentration not listed). hit rate 3.1% among 360,000;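 active = at least 3 SD above the mean of all compounds, about 16000 in these data; inconclusive = too few beads counted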;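 also: 100 nL of 1 mM stock went into each well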
Mtb hypoxia inh growth: second read-out of Mtb hypoxia inh, no call of its own (marks repeat the call); growth inhibition, %; measured here: M. tuberculosis growth (absorbance);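 0% = vehicle and 100% = reference antibiotic; read after six days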
Starred values were filed as active, the others as inactive; ? = inconclusive; · = not tested or not shown.

Start of the data: the first two records (preview)
Structure	Mtb hypoxia inh	Mtb hypoxia inh growth	PrP 5UTR inh	Sa ugtP lethal	Sa RN4220 lethal	BJeLR viability	Autofluor counter
O=C(COc1ccc(F)cc1Cl)Nc1cccc(S(=O)(=O)N2CCCCCC2)c1	-5	2	10	-21	-2.9	·	4529
O=C(CCN1C(=O)c2ccccc2S1(=O)=O)Nc1ccccc1O	7	3	-26	2	4.7	-6	2102

The list itself, previewed entries included:
Structure	Mtb hypoxia inh	Mtb hypoxia inh growth	PrP 5UTR inh	Sa ugtP lethal	Sa RN4220 lethal	BJeLR viability	Autofluor counter
O=C(COc1ccc(F)cc1Cl)Nc1cccc(S(=O)(=O)N2CCCCCC2)c1	-5	2	10	-21	-2.9	·	4529
O=C(CCN1C(=O)c2ccccc2S1(=O)=O)Nc1ccccc1O	7	3	-26	2	4.7	-6	2102
COc1ccc(C(=O)Nc2ccc(C3(C#N)CCCC3)cc2)cc1	10	2	-51	-2	0.0	6	4235
C=CCOc1cccc(CNCCCN2CCOCC2)c1	6	4	-43	13	-0.8	-13	4064
O=C(COC(=O)c1ccccc1C(=O)c1ccccc1)NCCc1ccc(Cl)cc1Cl	8	12	-1	-16	3.4	-4	2459
COc1ccc(C=NNC(=O)c2nnn(-c3nonc3N)c2CN(C)C2CCCCC2)cc1	0	-5	·	11	4.8	·	·
CC1CCCCN1c1nnc(NC(=O)Cn2c(=O)oc3ccccc32)s1 (configuration not stated)	-5	2	1	-17	0.3	-1	4176
N#Cc1ccc(-c2nc3ccccc3nc2-c2ccccc2)cc1C#N	7	5	-8	-7	4.0	-13	8887
COc1ccc(OC)c(/C=C/C(=O)N2CCN(S(=O)(=O)c3cc(C)ccc3C)CC2)c1	-8	14	·	-6	1.2	·	?
Cc1cc(Cl)c(S(=O)(=O)Nc2ccc3c(c2)OCCO3)cc1OCC(=O)NC1CCCCC1	0	-1	-5	1	-5.2	-6	19863*
COc1ccc(OC)c(C=CC(=O)OCC(=O)Nc2ccc3c(c2)OCCO3)c1	3	5	·	5	10	·	·
CCOc1ccccc1-c1nc(-c2cc3ccccc3nc2OC)no1	·	·	-10	29	6.8	0	5505
O=C(CN1CSCC1=O)N1CCN(S(=O)(=O)c2cc(C(F)(F)F)ccc2Cl)CC1	17	8	-25	4	5.0	·	5681
CC(=NNc1ccc(C)c(Cl)c1)c1ccncc1	-5	9	·	-4	-5.4	·	·
Cn1c(NC(=O)c2ccccc2)c(-c2ccccn2)c(=O)c2ccccc21	20	5	-38	-2	9.0	-10	20450*
C=CCn1c(Sc2nncn2C)nc2c1c(=O)[nH]c(=O)n2C	7	6	-24	3	4.9	5	6871
COc1ccccc1N1CCN(CCCNc2c(C)c(=O)n(C)c(=O)n2C)CC1	7	-5	-27	0	5.2	7	6660
Fc1cccc(-c2n[nH]c(=S)n2-c2ccccc2)c1	4	-3	-19	14	3.1	-14	4416
COc1ccc(NC(=S)NNC(=O)C2CC2c2ccc(C)cc2)cc1 (configuration not stated)	13	10	-3	8	5.0	0	2436
Cc1ccc(S(=O)(=O)N2CCCCC2)cc1NC(=O)COC(=O)Cc1cccc(C(F)(F)F)c1	-4	-2	-25	-4	5.8	17	9743

Next part.
Structure	Mtb hypoxia inh	Mtb hypoxia inh growth	PrP 5UTR inh	Sa ugtP lethal	Sa RN4220 lethal	BJeLR viability	Autofluor counter
CS(=O)(=O)c1ccc2sc(NC(=O)c3cc4ccccc4o3)nc2c1	-11	-8	-30	18	3.9	1	3835
Cc1ccccc1C1CC(c2ccccc2)Nc2ncnn21 (configuration not stated)	·	·	-26	1	-1.6	-4	4588
C=CCOc1c(Cl)cc(Cl)cc1S(=O)(=O)NCCO	19	17	-3	1	9.5	·	3241
Cc1c(Cl)ccc2c(C(=O)Nc3cc(C(C)(C)C)on3)cc(-c3ccccn3)nc12	-7	14	-11	0	2.8	3	6226
OC1CCCCC1	11	11	-10	7	3.9	·	5873
COc1ccc(C2C(C(C)=O)=C(O)C(=O)N2c2ccc(C)cc2)cc1 (configuration not stated)	-16	-1	-6	-10	-0.4	-2	3669
COc1ccc(NC(=O)CN2CC(c3ccccc3)CC2=O)cc1OC (configuration not stated)	·	·	-33	6	-0.8	4	5991
CCn1cc(C(=O)Nc2cccc(C(=O)OC)c2)c(=O)c2ccc(C)nc21	-2	3	-9	-3	2.8	-4	5754
COc1ccc(CCN(C)C(=O)COc2ccc(C(=O)c3ccccc3)cc2)cc1OC	0	12	1	3	3.4	-6	·
COc1cccc(C(=O)COC(=O)c2n[nH]c(=O)c3ccccc23)c1	·	·	-24	·	·	-2	4047
O=C(NCCN1CCOCC1)c1cc(S(=O)(=O)NCCCN2CCCC2=O)ccc1Cl	0	-7	-15	3	6.7	12	3947
CCCc1cc(C(=O)Nc2sc(C)c(C)c2C(=O)OCC)no1	-1	2	-26	22	22	·	5746
O=C(NC1CCCCCC1)C1CC(=O)N(c2ccc(Cl)cc2)C1 (configuration not stated)	4	15	-31	0	-0.3	13	5525
COc1ccc(C(C(=O)NCC2CCCO2)N(Cc2ccc(F)cc2)C(=O)CNC(=O)c2ccco2)cc1OC (configuration not stated)	7	-6	-17	5	-1.0	7	3140
COc1ccc(COCC(O)CN2CCc3ccccc3C2)cc1OC (configuration not stated)	12	8	-3	6	3.7	8	3914
O=C(O)c1cc(NN=Cc2ccncc2)ccc1Cl	2	8	·	15	4.2	·	·
NC(=O)C1CCN(C(=O)C2CCC(=O)N(CC3CCCCC3)C2)CC1 (configuration not stated)	1	-9	-2	-3	-0.8	8	5510
CC(C)CNC(=O)c1ccc(NC(=O)c2cccs2)cc1	9	2	-14	12	2.0	3	2593
CC(C)C(CC(=O)N1CCCCC1)C1CCOC(C)(C)C1 (configuration not stated)	4	5	-9	4	3.4	2	8986
COc1cc(/C=N/Nc2nc3ccccc3s2)ccc1OC(=O)c1ccccc1F	·	·	-117	·	·	-17	2606

(more compounds)
Structure	Mtb hypoxia inh	Mtb hypoxia inh growth	PrP 5UTR inh	Sa ugtP lethal	Sa RN4220 lethal	BJeLR viability	Autofluor counter
CC(=O)Nc1ccc(Nc2nc(-c3sc(C)nc3C)cs2)cc1	7	-4	-34	-5	-3.4	4	3931
O=C(OCC(=O)N(CCc1ccccc1)Cc1ccccc1)c1ccccc1NCCO	4	11	6	0	-1.7	11	4970
O=C(O)CCCC(=O)N1CCc2cc(S(=O)(=O)NCc3ccc(F)cc3)ccc21	-8	3	-7	3	-0.9	5	4427
O=C(Nc1ccc(Br)cc1)C1OCCc2ccccc21 (configuration not stated)	10	-1	-48	1	-2.2	-4	4890
CC(C)NC(=O)c1onc(CSc2ccncc2)c1C(=O)NC(C)C	2	1	-8	-5	-2.4	3	4026
COc1cccc(-c2cn3nc(C)c(C)nc3n2)c1	3	4	-27	5	2.9	24	3182
CCN(c1ccccc1)S(=O)(=O)c1ccc(F)cc1C	·	·	-7	11	6.2	·	4531
O=C(N/C(=C/c1ccco1)C(=O)N1CCCCCC1)c1cccs1	-4	-10	13	-6	-5.7	-5	14412
CCN(CC)C(=O)c1cccc(-c2ccc(OC)cc2)c1	8	14	-18	5	1.4	4	21818*
COc1ccccc1C(=O)NCC(=O)NN=Cc1ccc2c(c1)OCO2	2	10	·	4	0.0	·	·
O=C(c1cc(-c2cccs2)nc2ccccc12)N1CCN(c2ccccc2O)CC1	-11	1	-64	1	2.8	3	4157
COc1ccc(Cl)cc1NC(=O)CN1CCC(n2nnc3ccccc32)CC1	5	12	-33	-8	1.0	0	3682
CCOc1cc(C(C(=O)NCC2CCCO2)N(C(=O)Cn2nnc3ccccc32)c2ccc(OC)c(OC)c2)ccc1O (configuration not stated)	-16	0	-5	-1	0.3	-6	5860
COc1cnn(-c2ccccc2)c(=O)c1SCc1ccc(Cl)cc1Cl	1	3	-12	10	-11	-2	2549
COc1cccc(N2CCN(C(c3ccccn3)c3nnnn3C(C)(C)C)CC2)c1 (configuration not stated)	19	6	-21	3	-2.2	-2	3147
CCc1nc(SCc2ccccn2)[nH]c(=O)c1C	-7	0	-9	10	5.6	-5	4273
COc1ccc(NC(=O)/C=C/c2ccccc2[N+](=O)[O-])c(OC)c1	-1	-10	-16	2	2.4	4	1860
NC(=O)c1c(NC(=O)C(=O)N2CCOCC2)sc2c1CCCC2	3	5	-12	4	6.9	7	4860
Nc1nnc(CCOc2ccccc2Cl)s1	12	16	-6	4	4.5	-2	3840
Cc1cc(C(C)(C)C)ccc1OCCOCCN1CCCC1	15	16	-5	-2	-4.2	-6	2259

(more compounds)
Structure	Mtb hypoxia inh	Mtb hypoxia inh growth	PrP 5UTR inh	Sa ugtP lethal	Sa RN4220 lethal	BJeLR viability	Autofluor counter
CN(CC(=O)NCCCn1ccnc1)S(=O)(=O)c1ccc(Cl)cc1	21	22	-10	9	2.9	·	2644
NS(=O)(=O)c1ccc(CNC(=O)c2ccc3c(c2)OCO3)cc1	-1	0	-14	6	4.5	·	·
COc1cc(C)nc(N2CCCC(C(=O)Nc3cc(Cl)ccc3OC)C2)n1 (configuration not stated)	4	4	-6	18	24	4	2401
CC1(C)CC(=O)/C(=C(\O)c2ccccc2)C(=NCCc2ccccc2)C1	6	-10	-8	2	0.0	7	10914
CC(=O)NCCC(=O)Nc1ncc(S(=O)(=O)c2ccc([N+](=O)[O-])cc2)s1	1	2	-12	7	21	9	?
COc1ccc(NC(=O)CSc2c(C)nn(-c3nnc(C)c(=O)[nH]3)c2C)cc1	5	11	-82	2	2.3	-10	3028
CCOC(=O)CC1C(=O)NCCN1C(=O)c1cc2c(=O)n3cccc(C)c3nc2s1 (configuration not stated)	-1	9	-25	-5	-11	-6	5705
C=CCNC(=O)/C=C/c1ccc(C(C)C)cc1	6	18	-74	-6	6.0	7	2700
COc1ccc(C=NNC(=O)c2cccc(F)c2)cc1COc1ccccc1	2	-6	·	-1	-3.3	·	·
O=C(CS(=O)(=O)c1ccccc1)Nc1nnc(C(F)(F)F)s1	17	29	5	23	9.1	4	3690
Cc1nc2nc(C)c(NS(=O)(=O)c3ccc(Cl)s3)c(=O)n2[nH]1	9	6	-16	3	4.5	-7	3205
CC(=O)c1cccc(S(=O)(=O)NC(C)C2CC3CCC2C3)c1 (configuration not stated)	8	-4	-18	-1	4.3	-8	3684
COc1ccc(S(=O)(=O)NCCCN2CCOCC2)cc1F	6	1	11	16	7.6	8	4425
O=C(COC(=O)C1CCC(=O)N1)Nc1ccc(Oc2ccccc2)cc1 (configuration not stated)	-2	-1	-16	3	4.3	-1	4680
Cc1nc2nc(-c3ccco3)nn2c(C)c1Cl	·	·	-1	0	2.2	6	3579
CC(C)=C(C#N)c1nc2ccccc2s1	15	9	-41	9	12	-2	11486
C=CCNc1nc(NCc2ccccc2)c(C#N)c2c1CN(C)CC2	·	·	-31	-2	-0.8	4	4869
Cc1cnc(C(=O)NCC(=O)Nc2ccccc2Br)cn1	5	13	-14	2	0.6	·	·
COc1cccc(/C=C2\N=C(c3cncc(Br)c3)OC2=O)c1	5	2	-16	6	5.7	0	2190
Cc1ccccc1CN1C2=NCCCN2c2ccccc21	5	1	-27	2	-3.1	-1	?

Continued.
Structure	Mtb hypoxia inh	Mtb hypoxia inh growth	PrP 5UTR inh	Sa ugtP lethal	Sa RN4220 lethal	BJeLR viability	Autofluor counter
O=C(Cc1nnc(NC(=O)Nc2ccccc2)s1)Nc1ccccc1	-7	6	·	3	3.9	4	6071
CCN1C(=O)[C@H]2[C@@H](c3ccc(-c4ccc(Cl)c(Cl)c4)c(OC)c3)N[C@@](Cc3ccccc3)(C(=O)OC)[C@H]2C1=O	·	·	-6	·	·	7	3935
COC(=O)C(CC(C)C)NC(=O)CNC(=O)c1ccccc1C (configuration not stated)	·	·	-1	4	0.5	5	4750
O=C(NCC1CCN(Cc2ccccc2Cl)CC1)Nc1ccccc1F	9	7	-22	0	-0.7	-6	3615
CCc1ccccc1NC(=O)CN(C)C(=O)CSc1nc2cc(Cl)ccc2s1	-3	-4	-122	-17	5.1	2	2765
Nc1ccc(Oc2ccc3nc(-c4ccccc4)c(-c4ccc([N+](=O)[O-])cc4)nc3c2)cc1	·	·	-11	-2	18	1	2600
COc1ccc2nc(SC)c(C#N)cc2c1	8	-6	-15	5	6.2	8	4380
CC1Nc2ncnc(N3CCN(c4ccccc4)CC3)c2N(Cc2ccc(Br)cc2)C1=O (configuration not stated)	-5	5	3	-25	4.8	1	4126
CN(C)S(=O)(=O)c1ccc(S(=O)(=O)NC2CCOC(C)(C)C2)cc1 (configuration not stated)	-6	8	-9	-1	6.2	0	4561
